From PubChem BioAssay
Beta cell apopt – inhibitors of cytokine-induced beta cell apoptosis, primary screen, luminescence; INS-1E cytokine-induced death, ATP luminescence, 48 h; percent of positive-control rescue, neutral wells zero; protection from apoptosis, % (concentration not given with the values); 300,000 compounds, 0.8% hits;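 active means all replicates at 75% or more, or half of them and the mean; inconclusive means half reach 75% but not the mean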;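 further: 0% = cytokine-treated negative control wells and 100% = positive control rescue; higher means more ATP so stronger rescue from cytokine killing; wells of about 40 µL received 100 nL stock; the first replicate is given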
LANA-H2A inh – blockers of LANA interaction with H2A/H2B – biochemical, FP readout, HTS, primary screen | AID 2629, 2010 | cell-free LANA-H2A/H2B peptide, fluorescence polarization | 320,000 compounds, 0.6% hits | Protein LANA1 (Human herpesvirus 8 type P (isolate GK18)), Q9QR71 | inhibition, % (test concentration not listed); in the data active means inhibition mostly above about 10%, no sharp cut-off; inactive means mostly below about 6.7%;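 further: stock transfer was 7.5 nL into about 10 µL; 0% = median of vehicle wells and 100% = median of positive control wells; one replicate is shown; the record names a cut of 25% in any replicate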
UCH37 DUB inh – inhibitors of human UCH37 deubiquitinase, primary screen, biochemical, Ub-AMC cleavage, fluorescence | inhibition, % (test concentration not listed) | purified proteasome/UCH37 | 330,000 compounds, 0.33% hits | Ubiquitin carboxyl-terminal hydrolase isozyme L5 (Homo sapiens), Q9Y5K5;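 active means mean of two replicates above 20%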;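 further: 0% = compound-free wells with enzyme and 100% = wells lacking proteasome; stock transfer was 100 nL into about 20 µL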
Target sequence (Q9Y5K5 whole entry, looked up): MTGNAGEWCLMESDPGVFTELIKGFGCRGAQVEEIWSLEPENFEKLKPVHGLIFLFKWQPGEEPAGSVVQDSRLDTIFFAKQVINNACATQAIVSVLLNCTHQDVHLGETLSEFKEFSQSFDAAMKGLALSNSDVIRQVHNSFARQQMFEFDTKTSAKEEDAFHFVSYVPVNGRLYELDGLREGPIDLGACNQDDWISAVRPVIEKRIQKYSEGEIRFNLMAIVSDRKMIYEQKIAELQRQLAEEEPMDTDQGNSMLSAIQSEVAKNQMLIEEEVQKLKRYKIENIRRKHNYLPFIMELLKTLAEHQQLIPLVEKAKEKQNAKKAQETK
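assay system = human UCH37 enzyme supplied as purified proteasome complex | amount = proteasome at 0.15 nM in the dispensed enzyme solution | schedule = 30 min compound-proteasome preincubation then 25 min substrate reaction, room temperature | measured by = fluorescence, ex 355 nm, em 460 nm | benchmarks = no-proteasome wells (full inhibition) and compound-free wells (no inhibition)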
B2AR ag – beta2AR agonists driving receptor internalization, primary screen, cell-based, FAP fluorogen, flow cytometry | Am2.2-beta2AR cells; reference of the scale not given here | response, % (test concentration not listed) | 340,000 compounds, 0.43% hits | AID 504454, 2011;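 active means response above a set limit, near 3 SD of response in nonfluorescent compounds, cut at about 42% in these data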;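 further: stock transfer was 100 nL into about 11 µL; a reference agonist was the positive control; negative values mostly stem from fluorescent compounds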
Target sequence (P07550 whole entry, looked up): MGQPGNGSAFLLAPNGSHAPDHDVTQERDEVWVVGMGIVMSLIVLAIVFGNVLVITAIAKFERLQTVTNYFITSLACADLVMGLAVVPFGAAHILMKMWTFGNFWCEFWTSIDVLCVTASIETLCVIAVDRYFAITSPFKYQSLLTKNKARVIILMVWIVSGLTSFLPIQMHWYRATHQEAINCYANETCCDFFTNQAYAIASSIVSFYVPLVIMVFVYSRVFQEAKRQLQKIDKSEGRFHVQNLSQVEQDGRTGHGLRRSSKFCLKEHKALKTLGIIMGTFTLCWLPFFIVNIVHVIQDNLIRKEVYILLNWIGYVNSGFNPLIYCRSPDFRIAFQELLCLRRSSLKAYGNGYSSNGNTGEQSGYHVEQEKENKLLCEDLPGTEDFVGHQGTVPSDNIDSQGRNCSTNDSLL
T cruzi repl – inhibitors of intracellular T. cruzi growth, primary screen, luminescence, NIH3T3 host cells | T. cruzi beta-gal in NIH3T3, 90 h | inhibition, % (concentration not given with the values) | 300,000 compounds, 1.4% hits;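 active means mean inhibition across valid replicates above about 55%, limit read from the data; inconclusive means mean below that limit but half or more replicates reach it; inactive means mean below it, under half of replicates reach it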;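 further: signal also drops with host cell toxicity which is not excluded here; 0% = plate median of DMSO wells and 100% = zero luminescence signal; higher percent means less beta-gal luminescence so fewer parasites; stock transfer was 50 nL into about 50 µL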
RanGTP-Imp inh – inhibitors of RanGTP-importin-beta interaction, primary screen, biochemical, FRET, CFP-Ran, YFP-importin-beta, homogeneous; cell-free CFP-Ran/YFP-importin-beta FRET ratio; inhibition, % (concentration not given with the values); 300,000 compounds, 1.1% hits; AID 2216, 2009;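 active means most replicates above 15%; inconclusive means exactly half above 15%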;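 further: 0% = DMSO wells and 100% = Ran loaded with GDP instead of GTP; wells of about 40 µL received 100 nL stock; the first replicate is given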
Calb FLC – C. albicans growth inhibition with fluconazole, primary screen, CaCi-2 strain, Alamar Blue fluorescence. C. albicans CaCi-2 (fluconazole-resistant clinical isolate) + fluconazole, 48 h. growth inhibition, % (no concentration beside the values). 300,000 compounds, 0.57% hits. AID 1979, 2009;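 active means most replicates above 75%; inconclusive means exactly half above 75%; inactive means most below 75%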;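 further: all wells also contain fluconazole at 8 µg/ml as a sub-toxic cotreatment; 0% = median of DMSO wells and 100% = median of geldanamycin control wells; wells of about 8 µL received 7.5 nL stock; the first replicate is given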
A1 inh – caspase 3/7 activation in MEF A1-2A-BIM cells, primary screen, A1 inhibitor project, cell-based, luminescence, HTS; Caspase-Glo 3/7 luminescence, 3 h; percent of clofoctol response, vehicle zero; caspase activation, % (no concentration beside the values); 330,000 compounds, 0.066% hits; AID 2462, 2010;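 active means over half of replicate activation scores above 10%, or exactly half above 10 with the replicate mean above 10; inconclusive means replicate mean below 10 yet half the replicates above 10; inactive means over half of replicates below 10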;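 further: wells of about 30 µL received 50 nL stock; many hits fall short of the cut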
Starred values were filed as active, the others as inactive; u = inconclusive; x = not tested or not shown. Random draw from the library (roughly 4.3% active in at least one column).

SMILES	Beta cell apopt	LANA-H2A inh	UCH37 DUB inh	B2AR ag	T cruzi repl	RanGTP-Imp inh	Calb FLC	A1 inh
N#Cc1c(N)nc2c(c1N)CC(COc1ccccc1)O2 (stereo not given)	-8	0.5	4.7	0	0	3.2	-25	-0.8
CCOC(=O)N1CCN(c2cc3[nH]c(=S)[nH]c3cc2F)CC1	1	0.9	-3.9	-4	1	3.6	7	1.3
Cc1cc(CNC(=O)C2(C(F)(F)F)C/C(=C\CCO)CCCO2)nn1C (stereo not given)	-5	-2.0	3.1	7	-12	-5.7	-2	0.6
Cc1ccc(C(=O)Nc2ccccc2C(=O)N2CCCC(C)C2)cc1 (stereo not given)	-3	-5.6	1.2	0	-12	3.9	-8	-0.1
CC1CN(c2ncnc3c2cnn3-c2ccc(Cl)cc2)CC(C)O1 (stereo not given)	3	2.7	0.4	-2	16	9.2	5	0.0
Clc1cccc(CSc2nccn2-c2ccccc2)c1	x	-1.6	1.9	-5	-11	-2.1	-11	-0.7
Cc1c(C)n(Cc2ccc(F)cc2)c2ccc(C(=O)NCCN3CCOCC3)cc12	-6	1.6	1.6	7	-2	-2.0	-1	1.4
CCOc1ccc(N(CC(=O)Nc2c(C)cccc2C)S(=O)(=O)c2c(C)[nH]c(=O)[nH]c2=O)cc1	-6	2.1	5.0	5	1	-6.2	6	0.0
CCNC(=O)CSc1nc2sccc2c(=O)n1-c1ccccc1	5	-4.6	1.6	1	-6	1.9	-2	1.5
O=C(O)C1C2C=CC(C2)C1C(=O)Nc1ccc2c(c1)OCCO2 (stereo not given)	1	0.7	5.5	-3	-11	0.5	-7	-0.4
Cc1ccc(Nc2nc(CSc3nnnn3-c3ccccc3)cs2)cc1	-2	0.2	0.7	2	7	-3.4	16	-0.1
COc1ccc(CNC(=O)[C@H](C)NC(=O)C2CC(=O)N(c3ccc4c(c3)OCO4)C2)cc1 (stereo not given in full)	x	-2.5	3.7	3	0	-2.5	-9	-0.7
CSc1ccc(CN(C)C(=O)CNC(=O)c2sc3ccccc3c2Cl)cc1	-2	-0.3	2.0	-6	2	4.5	0	0.0
Cc1csc2ncc(C(=O)Nc3ccc(C(F)(F)F)cc3)c(=O)n12	x	-0.6	-7.0	-5	-6	-2.6	-2	-0.6
CCc1ccc2[nH]c(=O)c(CN(CCN(C)C)C(=O)Nc3ccccc3OC)cc2c1	-6	3.8	-0.9	-4	21	0.8	9	0.1
Cc1cc(NC(=O)CSc2nncn2N)no1	-3	4.9	2.6	0	-7	u	2	0.8
COc1ccc(-n2c(C)nnc2SCC(=O)NC2CC2)cc1	-5	5.5	x	-6	-3	7.5	9	0.2
CCOc1ccc(C2=CC(c3ccccc3)n3ncnc3N2)cc1 (stereo not given)	5	-0.9	-2.7	-7	-13	u	5	-0.4
COc1ccc(OC)c(N2CC(O)(c3ccccc3)[N+]3=C2SCCC3)c1 (stereo not given)	6	x	0.0	2	27	0.7	-10	-1.5
CCC(C)NC(=O)c1cn(CCOC)c(=O)c2c1c1ccccc1n2C (stereo not given)	-7	-6.3	-25	-5	6	0.3	-3	1.2
O=C(CN1C(=O)c2ccccc2C1=O)OCC(=O)N1CCN(c2ccccc2)CC1	-5	-0.9	3.1	-2	-16	-0.6	-2	0.9
CCNc1nc(NCC)n2c(SCC(=O)Nc3ccc(F)cc3[N+](=O)[O-])nnc2n1	1	-242	3.4	10	-5	8.5	-5	0.0
COn1c(=O)c(-c2cccc(Br)c2)[n+]([O-])c2ccccc21	4	6.0	-12	-7	-19	1.0	1	2.9
Cc1ccc(C)n1-c1ccccc1N1CCCCC1	x	-0.3	8.5	-3	21	4.0	-15	0.4
COc1cccc(CN2CC(C(=O)NCCCCc3ccccn3)CCC2=O)c1 (stereo not given)	-1	-4.4	1.1	-7	0	1.1	6	0.5
O=C(C[n+]1ccncc1)c1ccccc1	-2	-2.2	3.0	1	8	-2.4	0	0.4
Cc1ccc(Nc2nc(CSc3n[nH]c(N)n3)cs2)cc1	1	-1.0	-3.1	7	-9	2.4	-2	0.3
CCN(CC)CCCNC(=O)C(C)n1nc(C)c2sc3ccccc3c2c1=O (stereo not given)	-5	4.0	-3.0	-2	-14	u	-13	0.3
O=C(Nc1ccc(NC(=S)NC(=O)c2ccccc2Cl)cc1)c1cccc(Cl)c1	-1	-1.3	x	10	45	4.8	u	-0.4
Cc1[nH]c2ccc(-c3nnc(SCC(=O)c4ccccc4F)o3)cc2c1C	-4	-3.5	-1.7	3	30	-4.3	5	0.6
N#Cc1cnc(NOCc2ccc(Cl)cc2)nc1	-10	-3.9	0.8	0	-18	-0.6	14	0.1
C/C=C/C=N/Nc1nc(C)cc(=O)[nH]1	-7	-4.1	x	2	-13	-0.3	-16	-0.2
O=C(COc1ccc(Cl)cc1Br)NCC(c1ccco1)N1CCCC1 (stereo not given)	2	-0.2	-2.0	-7	x	x	x	-1.0
CCOC(=O)c1c(-c2ccc(OC)cc2)csc1NC(=O)CSc1nnc(C)c(=O)[nH]1	-5	6.4	1.2	6	-6	x	43	-0.4
COc1ccc(C(=O)Nc2cc(C)cc(C)c2)cc1S(=O)(=O)N1CCOCC1	-5	0.2	4.4	6	-5	-2.7	-2	0.0
O=C(NCCCN1CCOCC1)c1nn2c(C(F)(F)F)cc(-c3ccco3)nc2c1Cl	2	-2.0	2.9	-9	10	2.1	2	0.6
COc1cccc(-c2nc(CS(=O)(=O)CC(=O)NCCc3ccccc3)c(C)o2)c1	0	-5.5	-0.9	-3	5	-2.1	5	-0.2
O=C(CSc1nnc2sc3ccccc3n12)NCc1ccco1	-4	2.8	3.2	-16	7	-0.2	3	0.7
CCOc1ccc(-n2c(=O)cc(N3CCN(c4ccccc4)CC3)[nH]c2=O)cc1	x	3.4	5.4	-4	-8	-2.4	1	-1.0
NS(=O)(=O)c1ccc(NC(=O)COC(=O)CCC2CCCCC2)cc1	-8	x	0.5	11	0	7.5	-1	0.4
O=C(COC(=O)c1cccc(OC(F)F)c1)NC1CCCC1	-2	-1.5	1.2	-2	-4	u	1	-0.7
CC(=O)c1ccc(OCCCCCCCOc2ccc(C(C)=O)cc2)cc1	x	2.9	0.7	1	-3	4.2	-2	0.8
C/C(Cn1nnc([N+](=O)[O-])n1)=N\NC(=O)c1ccc(O)cc1O	x	3.5	x	10	u	5.5	-5	0.7
Cc1nc2ncccn2c1-c1csc(Nc2ccc(O)cc2)n1	x	x	4.4	-20	-65	5.5	-10	x
Cn1c(Cn2c(=O)sc3ccccc32)nnc1SCc1cccc(F)c1	2	-2.9	3.0	-6	7	-2.0	-1	u
O=C1C(C=NCCN2CCOCC2)=C(O)c2ccccc21	3	2.3	8.8	0	-6	1.0	-5	1.5
COc1ccc(C2C3=C(CC(C)(C)CC3=O)Oc3ncn(CC(C)C)c(=N)c32)cc1 (stereo not given)	6	0.7	0.7	-6	13	-0.5	-13	0.1
NC(=O)c1ccccc1Nc1nc2nc3ccccc3c(=O)n2cc1Br	-1	-4.3	-0.5	x	2	-3.5	1	0.0
COc1ccc(Cn2nnnc2C(c2cc3cc(C)ccc3[nH]c2=O)N2CCOCC2)cc1 (stereo not given)	-4	5.1	-36	5	-5	0.2	0	-0.1
Cn1nnnc1SCCNC(=O)C1CCC(=O)N(CCc2ccccc2)C1 (stereo not given)	-5	1.8	0.9	-6	-10	-1.3	0	1.2
Cc1cc(NC(=O)COC(=O)c2nccnc2N)n(-c2ccccc2)n1	4	2.0	-408	-1	-4	-0.2	-2	0.4
COC(=O)Cc1cc(=O)[nH]c(/N=C(\N)Nc2ccc(C(C)C)cc2)n1	1	6.1	x	5	-7	2.6	45	0.8
O=C(Nc1ccccn1)C(=O)N1CCCCC1	-13	3.8	-1.6	5	15	2.8	-5	0.1
CCc1nnc(NC(=O)c2ccc3c(c2)C(=O)N(CC)C3=O)s1	x	0.1	4.6	8	-1	4.8	19	-1.3
Cc1nonc1NC(=O)CSc1nc2ccc(Cl)cc2[nH]1	-2	2.6	5.8	3	-24	u	-7	-0.3
O=c1c(Cl)c(NCC2CCCO2)cnn1C12CC3CC(CC(C3)C1)C2 (stereo not given)	-3	0.3	8.3	-4	4	-4.5	-9	-0.5
Cc1csc(=O)n1CCC(=O)O	5	6.0	-1.1	10	0	-0.4	-13	-0.5
CCOc1ccccc1Nc1nnc(SCC(=O)NC2CCS(=O)(=O)C2)s1 (stereo not given)	-3	-0.1	-0.9	-7	x	x	x	0.1
COc1ccc(C2=NOC(Cn3nc(-c4ccccc4C)cc3C(=O)O)C2)cc1 (stereo not given)	-6	7.0	1.0	1	x	x	x	0.4
Nc1c(-c2ccc(Cl)cc2)cnc2c(-c3ccccc3)cnn12	x	-1.5	-40	-2	-3	1.0	-3	-3.1

More compounds:
SMILES	Beta cell apopt	LANA-H2A inh	UCH37 DUB inh	B2AR ag	T cruzi repl	RanGTP-Imp inh	Calb FLC	A1 inh
Cc1ccccc1CC(=O)N1CCOCC1	0	5.2	4.1	0	0	-2.8	3	0.0
CC1CCN(Cc2nnnn2-c2cccc([N+](=O)[O-])c2)CC1	-6	0.0	2.8	-5	12	-0.4	5	1.3
COc1ccc(NC(=O)CN(C)C(=O)CSc2nc3ccccc3s2)cc1	x	-0.6	2.4	-5	-5	-1.4	1	0.0
CN1CCC(N2CCN(c3cccc(C(F)(F)F)c3)CC2)CC1	-3	-5.7	2.4	-5	50	-2.9	-3	0.7
COc1ccccc1N1CCN(C2CCN(C(=O)c3ccc(F)cc3)CC2)CC1	-3	-5.4	0.7	-1	1	0.7	-2	0.0
COc1cccc(/C=C2\C(=O)N(c3cccc(C)c3)C(=O)c3ccccc32)c1	-15	-1.4	1.7	9	-18	u	2	0.6
CCc1ccc(NC(=O)c2onc(C)c2Cl)cc1	x	-4.9	4.3	-3	2	-3.6	4	-5.6
CCOC(=O)Cn1nc(C)c2ccccc2c1=O	-2	-1.3	3.8	-2	-7	0.4	4	0.3
C/C(Cn1nnc([N+](=O)[O-])n1)=N\NC(=O)c1ccc(C)cc1	7	0.0	x	-2	49	-1.4	11	1.1
Cc1cc(-c2cc(-c3ccccc3)on2)nc(NC2CCCC2)n1	-4	-0.8	1.1	1	17	4.2	-2	-1.2
CCOc1c2ccc(C(=O)NCc3ccc(C)cc3)cc2nn1CC	-11	6.0	-35	3	6	-5.0	10	0.3
CC(C)OC(=O)NCN1C(=O)C2C3C=CC(C3)C2C1=O (stereo not given)	-10	-1.1	1.8	3	-11	1.3	-8	0.3
CC(C)n1cnc2c(=S)nc[nH]c21	-8	-1.6	x	-9	-10	-1.0	-7	0.3
